Assay outcomes deposited in PubChem by Johns Hopkins Ion Channel Center.
KCNQ2 block – KCNQ2 potassium channel inhibitors, primary screen, cell-based, CHO-K1, FluxOR thallium flux, B-score (AID 2156). Potassium voltage-gated channel subfamily KQT member 2 (Rattus norvegicus), O88943. 20 min; stronger effect = lower value; only compounds with negative scores are shown here; some inactives read as strong as hits. 310,000 tested, 1.1% active. B-score at 10 µM;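 active = fluorescence ratio B-score at most minus 3 library SDs, with starting brightness B-score within 2 library SDs, cut at about -5.5 in these data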
Target sequence (O88943 whole entry, looked up): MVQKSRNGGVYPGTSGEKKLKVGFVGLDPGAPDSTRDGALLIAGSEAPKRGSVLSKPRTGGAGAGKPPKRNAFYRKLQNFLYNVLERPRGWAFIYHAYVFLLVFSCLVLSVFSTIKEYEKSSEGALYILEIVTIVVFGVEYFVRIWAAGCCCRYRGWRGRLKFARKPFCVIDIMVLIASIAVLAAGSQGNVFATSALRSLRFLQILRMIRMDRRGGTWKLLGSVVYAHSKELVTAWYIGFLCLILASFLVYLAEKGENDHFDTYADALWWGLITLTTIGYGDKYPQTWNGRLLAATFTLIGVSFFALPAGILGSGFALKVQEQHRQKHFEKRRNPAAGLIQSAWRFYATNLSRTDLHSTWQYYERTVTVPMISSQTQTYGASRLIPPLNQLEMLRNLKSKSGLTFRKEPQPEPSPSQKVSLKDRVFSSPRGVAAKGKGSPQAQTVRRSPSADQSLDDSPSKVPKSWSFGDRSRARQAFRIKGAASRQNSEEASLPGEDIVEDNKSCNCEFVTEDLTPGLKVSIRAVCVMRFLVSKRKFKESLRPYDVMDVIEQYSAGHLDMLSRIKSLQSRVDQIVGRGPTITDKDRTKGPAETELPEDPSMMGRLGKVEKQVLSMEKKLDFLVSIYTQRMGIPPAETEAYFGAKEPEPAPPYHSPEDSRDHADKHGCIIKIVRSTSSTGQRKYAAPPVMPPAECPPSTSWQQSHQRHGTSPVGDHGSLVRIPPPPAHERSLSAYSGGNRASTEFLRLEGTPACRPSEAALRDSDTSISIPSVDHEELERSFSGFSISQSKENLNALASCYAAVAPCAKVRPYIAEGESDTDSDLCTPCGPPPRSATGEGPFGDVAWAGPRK
KCNQ2 block baseline – second read-out of KCNQ2 block, no call of its own (marks repeat the call); B-score; measured here: initial fluorescence intensity artifact check;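 brightness before thallium and not channel activity; 0 = typical well and far values either way flag optical interference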
Numbers without * were called inactive; i = inactive. Only part of the results is shown; count on the stated rates, not on these rows.

SMILES | KCNQ2 block | KCNQ2 block baseline
Cc1ccc(NC(=O)CN2CCC(C(=O)c3ccc4c(c3)OCCO4)CC2)cc1 | i | -1.2
Cc1ccc(NS(=O)(=O)c2ccccc2[N+](=O)[O-])cc1C | i | -1.5
CCC(C)(C)n1nnnc1C(C(C)C)N1CCSCC1 (configuration not stated) | i | -0.44
COc1cccc(C2SCC(=O)N2c2cccc(C)c2)c1OC (configuration not stated) | i | 0.97
CC(C)(C)c1nnc(NC(=O)c2ccc3c(c2)OCO3)s1 | i | 1.9
CCOc1ccccc1C(=O)NCC(=O)OCCOc1cccc(Cl)c1 | i | 0.92
Cc1ccc(Sc2nc(-c3ccccc3)ccc2C#N)cc1 | i | 0.32
CCC(CC)C(=O)c1c[nH]c(C(=O)N2CCN(c3ccc(OC)cc3)CC2)c1 | i | 2.4
CN(Cc1c(C(=O)N/N=C/c2cccs2)nnn1-c1nonc1N)c1ccccc1 | i | -0.27
O=C(NCc1ccco1)C(c1cccs1)N(C(=O)C1COc2ccccc2O1)c1cccc(O)c1 (configuration not stated) | i | -2.9
CCC(=O)N(C(=O)CC)N1CCN(c2ccncc2S(=O)(=O)N2CCCCC2)CC1 | i | 1.1
COc1ccc(S(=O)(=O)N2CCN(C(=O)COc3ccc(C)c(C)c3)CC2)cc1OC | i | 2.5
CC1=NN(c2ccccc2)C(=O)C1(C)[N+](=O)[O-] (configuration not stated) | i | -0.05
COc1ccccc1NC(=O)Nc1ccc(Cl)c(S(=O)(=O)Nc2ccccc2OC)c1 | i | -0.11
COc1ccc(NC(=O)C(CC(C)C)NC(=O)C2CCCCC2)c(OC)c1 (configuration not stated) | i | -0.12
O=S(=O)(c1ccc(Br)cc1)c1nc(-c2ccccc2)oc1N1CCOCC1 | i | 0.77
COc1ccc(CNc2cccc3[nH]c(C(F)(F)F)nc23)cc1OC | i | 1.2
CN(C)c1ccc(C=NCC2COc3ccccc3O2)cc1 (configuration not stated) | i | 0.04
CCOc1ccc(-n2nc3c(SCCN4CCCC4)nnc(C)c3c2C)cc1 | i | -0.17
O=C1CCOc2cc(OCc3ccccc3)ccc21 | i | 0.45
O=C(N/N=C/c1ccsc1)c1c[nH]c2ccccc12 | i | -0.14
CC(C(=O)N1CCCc2c1c(=O)oc1ccc(O)cc21)N1CCc2ccccc2C1 (configuration not stated) | i | 0.22
O=C(COC(=O)c1ccco1)Nc1nc2ccccc2s1 | i | 0.32
Cc1ccc2nc(C)c3c(c2c1)OC(C(C)(Cl)Br)C3 (configuration not stated) | -5.7* | -0.11*
CCC(NC(C)C)C(O)c1ccc(O)c(O)c1 (configuration not stated) | i | -1.5
COc1cc(S(=O)(=O)N2CCCCC2)ccc1NC(=O)Cc1ccccc1 | i | 0.06
CSCc1ccc(C(=O)NCCSc2ccc(Br)cc2)cc1 | i | -0.04
Cc1ccc(S(=O)(=O)N2CCN(S(=O)(=O)c3ccc4c(c3)OCCO4)CC2)cc1 | i | -0.13
O=C(CCC(=O)N1CCSc2ccccc21)Nc1ccc(F)cc1 | i | 0.7
NC(=O)CCNC(=O)c1ccc(Cl)cc1 | i | 1.6
COc1ccc(NC(=O)N(C2CCCCC2)C(C)c2cccnc2)c(OC)c1 (configuration not stated) | i | -0.67
C=C(CCC(=O)c1ccccc1)C(=O)c1ccccc1 | i | -0.06
C=CCN(c1ccccc1)S(=O)(=O)c1cccc(C(=O)NCC(c2ccccc2OC)N2CCCC2)c1 (configuration not stated) | i | -0.53
c1ccc2[nH]c(SCc3cn4ccccc4n3)nc2c1 | i | -0.26
CCOc1ccc(CCNC(=O)c2cnc(C)cn2)cc1OCC | i | -2.1
COc1ccccc1CNC(=O)[C@H](C)NC(=O)C1CCN(C(=O)[C@@H](N)C(C)C)CC1 | i | 0.63
O=C(C1CCCCC1)N1CCCc2ccccc21 | i | -0.09
COc1cccc(N2C(=O)N(c3ccccc3Cl)C3CS(=O)(=O)CC32)c1 (configuration not stated) | i | 2.2
O=C(COc1ccccc1-c1ccccc1)N/N=C/c1cccnc1 | i | -2.2
O=[N+]([O-])c1cccc(-c2cn3nc(-c4ccccc4)c(-c4ccccc4)nc3n2)c1 | i | 0.48
Cn1c(C(=O)O)c(S(=O)(=O)c2ccc(Cl)cc2)c2ccccc21 | i | 1.1
CCCO/N=C1/C(=O)N(c2ccccc2)c2ccccc21 | i | 0.56
N#CC/C(N)=N/Nc1nc2ccccc2nc1Cc1ccccc1 | i | 1.6
CCOC(=O)C1[C@H]2C(=O)N(C(C)c3ccc(OC)cc3)C[C@]23C=C[C@H]1O3 (some centres not stated) | i | -0.96
COc1ccccc1CN1CCCC(C(=O)N2CCCCC2)C1 (configuration not stated) | i | 0.1
COc1cccc(/C=C2\SC(=O)N(CCC(=O)NC3CCS(=O)(=O)C3)C2=O)c1 (configuration not stated) | i | 0.73
O=C(C1=C[C@@H](c2ccc(Br)cc2)C[C@@H](OCCCCO)O1)N1CCN(Cc2ccc3c(c2)OCO3)CC1 | -6.2* | 0.33*
C=C(C)COc1ccc2c(CC)cc(=O)oc2c1 | i | 0.02
COC(=O)CN(c1ccc(OC)cc1)S(=O)(=O)c1c(C)noc1C | i | -0.51
Cc1cccc(OCC(=O)N/N=C/CC(C)c2ccccc2)c1C (configuration not stated) | i | 0.03
O=C1CN(CC(=O)Nc2ccc(SC(F)F)cc2)CCN1 | i | 0.48
COc1ccccc1/C=C1/C(=O)N(c2ccccc2)N=C1C | i | -0.2
CCC(=O)c1ccccc1OCCN1CCN(Cc2ccccc2)CC1 | i | 0.45
Cc1cccc(NC(=S)N2CCC(c3nc4ccccc4o3)CC2)c1 | i | 0.11
Nc1nc(CSC(=S)N2CCN(c3ccccc3)CC2)nc(Nc2ccccc2)n1 | i | -0.36
CCC(C)(C)C(=O)Nc1ccc(OC)cc1[N+](=O)[O-] | i | 0.41
CC1CCN(c2ccccc2NC(=S)NC(=O)c2ccc(-c3cccc([N+](=O)[O-])c3)o2)CC1 | i | -0.06
COc1cc(/C=C(\C#N)c2nc(-c3cc4ccccc4oc3=O)cs2)ccc1O | i | 1.1
Cc1ccc(NC(=O)c2cccc(N3C(=O)CCC3=O)c2)nc1 | i | -1.4
O=S1(=O)C=C(SCc2cccc(Cl)c2)Nc2ccccc21 | i | 1.4

(more compounds)
SMILES | KCNQ2 block | KCNQ2 block baseline
CCn1c(SCc2nc(-c3ccccc3)no2)nnc1-c1cccs1 | i | 1.8
COC(=O)c1sccc1NC(=O)Nc1ccccc1OC | i | -0.54
COc1ccccc1NS(=O)(=O)c1ccc(O)c(C(=O)OCC(=O)N2c3ccccc3CC2C)c1 (configuration not stated) | i | 1.3
CSc1ccccc1C(=O)Nc1ccc2c(c1)OCO2 | i | 0.05
CCCC(=O)Nc1ccccc1Sc1ncnc2scc(-c3ccccc3)c12 | i | -0.11
CCOc1cc(CNCc2ccccc2)ccc1OCc1ccc(Cl)cc1 | i | -1.7
COc1ccc(CN2CCN(Cc3ccco3)CC2)cc1 | i | 0.18
CN1C(=O)N(C)C2(c3ccccc3)Nn3c(s/c(=C/c4ccccc4)c3=O)=NC12c1ccccc1 (configuration not stated) | i | 2
O=C(O)c1cc(-c2cccc([N+](=O)[O-])c2)nc2ccccc12 | i | 0.26
CC(=O)c1cccc(NC(=O)COC(=O)c2ccc3c(c2)OCCO3)c1 | i | 4
Cc1ccccc1C(=O)NCCN=C1NS(=O)(=O)c2ccccc21 | i | 0.51
CCN(CC)C(=O)CC(c1ccc(OC)cc1)c1c(O)cc(OC)cc1OC (configuration not stated) | i | 1.2
CCc1sc(C(=O)NCCCN2CCCC2=O)cc1Br | i | -3.6
CCOCC(=O)Nc1ccc(S(=O)(=O)Nc2nccs2)cc1 | i | -0.09
CCS(=O)(=O)c1ccc(-c2csc(-c3ccccc3Cl)n2)c(Cl)c1Cl | i | 0.95
O=C(c1ccccn1)c1cc2ccccc2n1S(=O)(=O)c1ccccc1 | i | -0.08
Cn1cccc1/C=N/NC(=O)c1ccccn1 | i | 0.25
O=[N+]([O-])c1ccccc1S(=O)(=O)N1CCN(Cc2ccccc2)CC1 | i | -0.69
CCN(Cc1ccccc1)c1ccc(/C=N/NC(=S)NC(C)C)cc1 | i | 2.6
COc1ccccc1CN1C[C@@H]2C[C@@H](C3=Cc4cccc(OC)c4OC3)N3CCC[C@@]23C1=O | i | -0.43
N=c1c2c(n(Cc3cccc(Cl)c3)c3c1CCC3)CCCC2 | i | -0.34
CC(C)Oc1ccc(CSc2nnc3n(C)c(=O)c4c5c(sc4n23)CCCC5)cc1 | i | 0.09
COc1ccc(-n2c(SCC(=O)Nc3cc(C)on3)nc3c(c2=O)SCC3)cc1OC | i | -3.2
COc1cc(OC)cc(C(=O)N[C@H](C(=O)N2CCc3ccccc32)C(C)C)c1 | i | -3.8
Cc1ccc(C2N(C)c3ccccc3-c3nc4ccccc4n32)o1 (configuration not stated) | i | 1.2
COc1ccc(CC(=O)Nc2ccc(-c3noc(-c4cccc(OC)c4)n3)cc2)cc1 | i | 1.4
COC(=O)c1ccccc1NC(=S)NC(=O)c1cccc2ccccc12 | i | -1.4
CS(=O)(=O)N1CCN(c2ccccc2NC(=O)c2ccc(-c3ccc(Br)cc3)o2)CC1 | i | 1.5
O=C(NC(=S)Nc1ccc(CN2CCOCC2)cc1)c1ccc2c(c1)OCCO2 | i | -0.06
CN(CC(=O)N1CCCC1)S(=O)(=O)c1cccc(Cl)c1 | i | -1.5
COc1ccc(NC(C)=O)cc1NC(=O)c1cccc(C(F)(F)F)c1 | i | 1.3
Cc1ccc(S(=O)(=O)N2CCC(C(=O)OCC(=O)NCc3ccco3)CC2)cc1C | i | 0.21
CC(=O)NC1=NN(C(C)=O)C2(S1)C(=O)N(C(C)C)c1ccc(C)cc12 (configuration not stated) | i | -0.63
O=C1CN(C(=O)c2c(F)cccc2F)C(c2ccccc2)c2cc(Br)ccc2N1 (configuration not stated) | i | 2
CCOC(=O)c1ccc(NC(=O)c2c(NC(=O)CCC(=O)O)sc3c2CCCCC3)cc1 | i | -0.23
O=C(Nc1ccccc1)N(CCN1CCOCC1)Cc1cccc(Cl)c1 | i | 2.4
COc1cccc(C2=Nc3cccc4cccc(c34)N2)c1 | i | 0.01
O=C(C1CCN(S(=O)(=O)Cc2ccccc2)CC1)N1CCN(c2ncccn2)CC1 | i | 0.02
Cc1c(NS(=O)(=O)c2cccc(C(=O)NCc3ccc(Cl)cc3)c2)c(=O)n(-c2ccccc2)n1C | i | 0.27
CCCOc1ccc(C2c3c(oc4ccccc4c3=O)C(=O)N2CCN(CC)CC)cc1OC (configuration not stated) | i | 0.81

Reformatted with the structure last: part of the list above
KCNQ2 block,KCNQ2 block baseline,Compound
i,-1.4,COC(=O)c1ccccc1NC(=S)NC(=O)c1cccc2ccccc12
i,1.5,CS(=O)(=O)N1CCN(c2ccccc2NC(=O)c2ccc(-c3ccc(Br)cc3)o2)CC1
i,-0.06,O=C(NC(=S)Nc1ccc(CN2CCOCC2)cc1)c1ccc2c(c1)OCCO2
i,-1.5,CN(CC(=O)N1CCCC1)S(=O)(=O)c1cccc(Cl)c1
i,1.3,COc1ccc(NC(C)=O)cc1NC(=O)c1cccc(C(F)(F)F)c1
i,0.21,Cc1ccc(S(=O)(=O)N2CCC(C(=O)OCC(=O)NCc3ccco3)CC2)cc1C
i,-0.63,CC(=O)NC1=NN(C(C)=O)C2(S1)C(=O)N(C(C)C)c1ccc(C)cc12 (configuration not stated)
i,2,O=C1CN(C(=O)c2c(F)cccc2F)C(c2ccccc2)c2cc(Br)ccc2N1 (configuration not stated)
i,-0.23,CCOC(=O)c1ccc(NC(=O)c2c(NC(=O)CCC(=O)O)sc3c2CCCCC3)cc1
i,2.4,O=C(Nc1ccccc1)N(CCN1CCOCC1)Cc1cccc(Cl)c1
i,0.01,COc1cccc(C2=Nc3cccc4cccc(c34)N2)c1
i,0.02,O=C(C1CCN(S(=O)(=O)Cc2ccccc2)CC1)N1CCN(c2ncccn2)CC1
i,0.27,Cc1c(NS(=O)(=O)c2cccc(C(=O)NCc3ccc(Cl)cc3)c2)c(=O)n(-c2ccccc2)n1C
i,0.81,CCCOc1ccc(C2c3c(oc4ccccc4c3=O)C(=O)N2CCN(CC)CC)cc1OC (configuration not stated)

Other entries follow:
SMILES | KCNQ2 block | KCNQ2 block baseline
COC(=O)c1ccsc1NC(=O)CCS(=O)(=O)c1ccc(Cl)cc1 | i | -0.07
CC(=O)c1cccc(Oc2ncccn2)c1 | i | 3.1
Cc1ccc(-c2noc(C3CCN(S(C)(=O)=O)CC3)n2)o1 | i | -0.43
COC(=O)c1c(-c2ccccc2)nn(-c2ccccc2)c1C(=O)OC | i | 1.1
COc1ccccc1CNc1cc(-c2ccccc2)ccc1OC | i | 0.02
Cc1nnc(NC(=O)CCC(=O)N2CCN(CCOc3cccc4ccccc34)CC2)s1 | i | 0.16
O=C(NCCS(=O)(=O)N1CCN(c2cccc(Cl)c2)CC1)c1cc(=O)c2ccccc2o1 | i | 0.99
N/C(Cc1cccc2ccccc12)=N\OC(=O)c1cccs1 | i | -0.24
O=C(NC1CCCC1)C(c1c(F)cccc1Cl)N(C(=O)c1csnn1)C1CC1 (configuration not stated) | i | -0.69
O=C(CN1C(=O)C2(OCCO2)c2ccccc21)c1ccc(F)cc1 | i | -0.19
CCCN(CCC)c1nc2c(C)cccn2c(=O)c1/C=C1/SC(=S)N(Cc2ccco2)C1=O | i | 4.2
COc1ccc(C(=O)/C=C/C(=O)N(CC(=O)NC2CCCCC2)Cc2ccccc2OC)c(O)c1 | i | 0.89
CCn1cc(C(=O)OCC(=O)c2cc(C)n(-c3ccccc3)c2C)c(=O)c2ccc(C)nc21 | i | 0.66
C=CCn1c(SCC(=O)NC2CCCCC2)nnc1-c1cccnc1 | i | 0.51
O=C(CCS(=O)(=O)c1cccc2nonc12)Nc1ccc(Br)cc1 | i | 0.9
CC1CN(C(=O)c2nn(C)cc2[N+](=O)[O-])CC(C)O1 (configuration not stated) | i | -0.2
O=C(NC1CCCCC1)C(c1cccs1)N(Cc1cccs1)C(=O)c1ccco1 (configuration not stated) | i | 0.97
CC1(C)CC(=O)C2=C(C1)NC(=S)C(C#N)C21CCCCC1 (configuration not stated) | i | 0.51
